Screening results deposited in PubChem BioAssay by National Center for Advancing Translational Sciences (NCATS).
Sfp PPTase inh: blocks B. subtilis Sfp PPTase activity. Q9F4F7. 310,000 tested, 3.5% active. Biochemical Sfp PPTase activity, qHTS. Potency, µM, without a hit: max response, negative = inhibition, actives largely listed as inhibitors; active means well fitted inhibition curve with a large enough effect; inconclusive means small, poorly fitted or top-dose-only effect, or another doubt; inactive means no such curve, though single readings can be large or run the other way;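 further: the enzyme is Sfp with the accession as filed and its product quenches rhodamine fluorescence; potency means the concentration at half of the fitted maximal effect; 0% = enzyme reaction without inhibitor and -100% = no enzyme wells; top concentration of the series not given in the record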
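Fluorescence-quenching assay with 15 nM Sfp, 5 uM rhodamine-CoA and 12.5 uM BHQ-2-labelled ybbR peptide in pH 7.6 Hepes/MgCl2 buffer. Enzyme was pre-incubated with compound for 15 min at room temperature. Rate was taken from the 30-min fluorescence change (525/598 nm).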
PINK1 modulator: modulators of PINK1 expression; Potency, µM (titrated, usually from 76.6 µM), for inactives: at the highest dose activation (PINK1 increase), hits mostly activators; 410,000 tested, 0.2% active; PINK1 immunofluorescence, high-content cytometry, 24 h; active = well fitted activation curve with a large enough effect; inconclusive = small, poorly fitted or top-dose-only effect; inactive = flat fitted curve, though single readings scatter; cell line not stated here;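 further: potency means the concentration at half of the fitted maximal effect; % of control where 0% means no effect; nearly all actives have a fitted effect of over 65% in size; a mitochondrial uncoupler was the plate control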
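Decision-based qHTS: stable cells, 24 h exposure to five compound concentrations, CCCP as control. Fixed cells stained for PINK1 plus nuclear, mitochondrial and cell markers, cytometer read.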
Menin-MLL FL inh: displaces fluorescein MLL peptide from human menin; Fluorescence polarization, fluorescein-MLL peptide displacement from menin; FP activity change, % at 61.4 µM; 290,000 tested, under 10 active; inconclusive = falling polarisation curve, or a change in total fluorescence; inactive = total fluorescence flat and polarisation flat or rising; no compound was filed as active; the % refers to the polarisation; negative = inhibition;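 further: % of control where 0% means no effect; inhibitors lower the polarisation; unlabelled MLL peptide was the positive control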
gsp agonist: activates gsp, the McCune-Albright syndrome mutation. 340,000 tested, 0.13% active. Potency, µM (top dose mostly 76.9 µM), for inactives: at the highest dose activation (cAMP increase), most hits filed as activators. gsp mutant cells, cAMP HTRF, 30 min; control for the full effect not named in the record; active = well fitted activation curve with a large enough effect; inconclusive = small, poorly fitted or top-dose-only effect, or another doubt; inactive = no such curve, though single readings can be large or run the other way; cell line not stated here;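 further: phosphodiesterase inhibitor Ro 20-1724 added with compounds to block cAMP breakdown; potency means the concentration at half of the fitted maximal effect; nearly all actives have a fitted effect of over 60% in size; about a fifth of the inactives were tested at one dose only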
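Cells stably selected in G418 were plated at 2000/well, grown 16-24 hr, then given compounds in DMSO with the PDE inhibitor […] (300 uM solution added) for 30 min at 37C; cAMP was read by HTRF.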
gsp antagonist: antagonists of gsp mutant (McCune-Albright syndrome); gsp-mutant cells, cAMP HTRF, 30 min; control for the full effect not named in the record; Potency, µM (top dose mostly 76.9 µM), for the others: at the highest dose activity change, negative = inhibition, hits mostly inhibitors; 340,000 tested, 0.4% active; AID 624288; active = falling curve of any shape with a large fitted effect; inconclusive = falling curve, mostly with a smaller effect; inactive = flat or rising curve; cell line not stated here;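 further: intracellular cAMP measured with PDE inhibitor Ro 20-1724 present during compound exposure; potency means the concentration at half of the fitted maximal effect; on the % scale 0 is the no-effect control and ±100 the full control effect; nearly all actives have a fitted effect of over 65% in size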
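HTRF cAMP measurement after 30 min RT detection following 30 min, 37C compound treatment alongside […] (added as 300 uM solution) in G418-selected cells seeded at 2000/well and grown 16–24 h.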
ClpP mod: qHTS Assay for Activators of ClpP. purified B. subtilis ClpP, FRET peptide cleavage, 20 min. Potency, µM (top dose mostly 57.5 µM), for the others: top-dose activity change, negative = active. 340,000 tested, 1.9% active; active = well fitted falling curve with a large enough effect; inconclusive = small, poorly fitted or top-dose-only effect; inactive = no such curve, though single readings can be large or run the other way; further: potency means the concentration at half of the fitted maximal effect; the source files actives as falling curves though it sought activators and does not explain the sign; nearly all actives have a fitted effect of over 65% in size; many hits overshoot -100%
Target sequence (P80244 whole entry, looked up): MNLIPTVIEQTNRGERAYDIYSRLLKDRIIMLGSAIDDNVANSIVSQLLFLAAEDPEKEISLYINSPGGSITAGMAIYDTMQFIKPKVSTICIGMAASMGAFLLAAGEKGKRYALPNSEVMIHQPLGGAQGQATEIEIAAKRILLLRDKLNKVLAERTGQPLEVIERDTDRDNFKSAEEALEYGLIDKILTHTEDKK
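FRET quenching reversal measured ClpP activation: 10 microg/mL B. subtilis ClpP at pH 8 with the FRET-FV decapeptide, read at 430 nm after 320 nm excitation. The 20-min minus 0-min signal was scaled between DMSO/no-enzyme wells and ADEP (5.8 microM final).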
D2 ag: agonists of human D2 dopamine receptor (beta-arrestin); P14416; activation, % (concentration not given with the values); DiscoveRx PathHunter D2 beta-arrestin, luminescence, 90 min; 100% = 57 uM dopamine signal; AID 624465; 360,000 tested, 0.084% active; in the data active = activation above about 40%; inconclusive = about 15% to 40%; inactive = below about 15%; further: compound concentration not given in the record; the text of the record calls up to 30% inactive
Target sequence (P14416 whole entry, looked up): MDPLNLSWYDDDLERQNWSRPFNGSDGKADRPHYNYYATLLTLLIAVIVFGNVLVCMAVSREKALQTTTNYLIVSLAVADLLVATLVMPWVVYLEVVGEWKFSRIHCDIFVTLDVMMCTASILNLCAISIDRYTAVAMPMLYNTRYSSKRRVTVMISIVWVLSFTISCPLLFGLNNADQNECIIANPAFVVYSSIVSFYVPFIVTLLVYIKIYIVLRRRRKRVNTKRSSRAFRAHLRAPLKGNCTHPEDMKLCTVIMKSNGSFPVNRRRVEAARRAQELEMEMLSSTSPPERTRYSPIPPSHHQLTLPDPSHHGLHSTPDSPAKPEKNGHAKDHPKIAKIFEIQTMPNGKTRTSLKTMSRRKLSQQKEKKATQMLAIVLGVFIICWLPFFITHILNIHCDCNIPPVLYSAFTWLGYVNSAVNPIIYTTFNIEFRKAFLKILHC
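Agonist mode: compounds alone added to overnight-plated D2 PathHunter cells for 90 min at 37 C, with 57 uM final dopamine (EC100) defining full response. Beta-arrestin recruitment detected by chemiluminescent reagent, read after 1 h at ambient temperature.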
Active calls of the source: *; & = joins results of further samples; [ ] = remark or other dose.

`CCOc1ccc(C(C)=O)cc1CSc1nnc(-c2ccoc2C)n1N` gave Sfp PPTase inh -22.2%, PINK1 modulator -1.2%, Menin-MLL FL inh 7.3, gsp agonist -7.9%, gsp antagonist 2.5%, ClpP mod 0.1% and D2 ag -1.8.
`COc1ccc(OCC(=O)OCC(=O)Nc2cc(S(=O)(=O)N3CCOCC3)ccc2Cl)cc1` gave PINK1 modulator 0.1%, gsp agonist -59.1%, gsp antagonist 0.6%, ClpP mod 1.1% and D2 ag 1.0.
For CC(C)=CC(=O)N1CCCC(N2CCN(c3ccc(F)cc3)CC2)C1 (stereo unspecified) the results were Sfp PPTase inh 8.8%, PINK1 modulator -0.5%, Menin-MLL FL inh 0.3, gsp agonist -11.2%, gsp antagonist 2.3%, ClpP mod -1.8% and D2 ag -5.7.
CNC(=O)c1cc(C(=O)c2c(Cl)cccc2Cl)c[nH]1 was read as Sfp PPTase inh 7.9%, PINK1 modulator -1.8%, Menin-MLL FL inh -2.5, gsp agonist -3.7%[15.4 µM], gsp antagonist 6.7% and D2 ag 1.4.
`CN1CCN(C(=S)Nc2ccc(Oc3ccccc3)cc2)CC1` gave Sfp PPTase inh -2.0%, PINK1 modulator -1.4%, Menin-MLL FL inh -4.5, gsp agonist -9.8%, gsp antagonist -2.9% and D2 ag 2.6.
For Cc1cc(F)ccc1-c1cc(C(=O)NCc2cccc(C(F)(F)F)c2)[nH]n1 the results were PINK1 modulator 9.5%, ClpP mod -0.2% and D2 ag 1.5.
Screening COc1cc(C(=O)NCC(=O)N2CCN(S(=O)(=O)c3ccccc3)CC2)cc(OC)c1OC returned PINK1 modulator 1.9%, gsp agonist -6.0%[15.4 µM], gsp antagonist -8.9% and D2 ag -0.4.
CCC1(C)Cc2c(sc(NC(=O)CCC(=O)O)c2C#N)CO1 (stereo unspecified) was read as Sfp PPTase inh 6.9%, PINK1 modulator -0.9%, Menin-MLL FL inh -0.2, gsp agonist 19.0%, gsp antagonist 8.5%, ClpP mod -1.2% and D2 ag 0.7.
`CC1Sc2ccc(S(=O)(=O)CCC(=O)NC3CCCC(C)C3C)cc2NC1=O` (stereo unspecified) gave Sfp PPTase inh 9.0%, PINK1 modulator -1.2%, Menin-MLL FL inh 7.6, gsp agonist inconclusive, gsp antagonist -5.0%, ClpP mod 0.4% and D2 ag -2.0.
For COc1cccc(N2CCN(c3c(C#N)c(C(F)(F)F)nn3C)CC2)c1 the results were Sfp PPTase inh -6.0%, PINK1 modulator -0.3%, Menin-MLL FL inh 1.8, gsp agonist -27.1%, gsp antagonist 4.1%, ClpP mod -0.8% and D2 ag 0.2.
For CC(C)CCn1c(=O)c2sccc2n2c(CCCC(=O)N3CCC(N4CCCCC4)CC3)nnc12 the results were Sfp PPTase inh 12.9%, PINK1 modulator -1.3%, gsp agonist 4.8%, gsp antagonist inconclusive, ClpP mod -17.8% and D2 ag -1.0.
For Cc1ccc(S(=O)(=O)N2CCCOC2CNC(=O)C(=O)NCc2ccccn2)cc1 (stereo unspecified) the results were Sfp PPTase inh -1.4%, PINK1 modulator -1.6%, gsp agonist -34.0%[inhibitor], gsp antagonist 2.5%, ClpP mod -7.7% and D2 ag -2.1.
Cc1ccc(SCC(=O)OCC(=O)NCc2ccco2)cc1 was read as PINK1 modulator 2.0%, gsp agonist 7.6%, gsp antagonist 4.4%, ClpP mod -2.7% and D2 ag 3.5.
Cn1ncc2c(=O)[nH]c(N)nc21 was read as PINK1 modulator 2.4%, gsp agonist -2.7%, gsp antagonist 1.8% and D2 ag 2.0.
CC(=O)Nc1ccc(S(=O)(=O)NCc2ccc(C(=O)NCc3ccc(Cl)cc3)cc2)cc1 was read as Sfp PPTase inh inconclusive, PINK1 modulator 5.6%, Menin-MLL FL inh 1.7, gsp agonist -33.7%[inhibitor], gsp antagonist 6.9%, ClpP mod 1.5%&0.6% and D2 ag -2.2.
Screening Cc1cc(OC(C)C(=O)N2C[C@H]3C[C@@H](C2)c2cccc(=O)n2C3)c2c(C)c(C)c(=O)oc2c1 (stereo partly specified) returned Sfp PPTase inh 12.1%, PINK1 modulator -0.4%, Menin-MLL FL inh -0.4, gsp antagonist -1.2%, ClpP mod 5.0% and D2 ag -3.7.
Cc1cccc(OCc2ccccc2)n1 was read as PINK1 modulator 2.8%, gsp agonist 0.6%, gsp antagonist 7.7% and D2 ag -1.3.
Screening NC(CCc1ccccc1)c1csc(Nc2ccc(C(=O)c3ccccc3)cc2)n1 (stereo unspecified) returned PINK1 modulator -1.2%, ClpP mod 0.9% and D2 ag 8.0.
`CCOC(=O)c1c(NC(=O)CN(C)C2CCN(C)CC2)sc(C(=O)Nc2ccccc2)c1C` gave Sfp PPTase inh inconclusive, PINK1 modulator 0.6%, Menin-MLL FL inh -5.6, gsp agonist -49.2%[inhibitor], gsp antagonist -9.8%, ClpP mod 0.4% and D2 ag -4.8.
For CCOCCCNC(=O)C(c1ccc(OC)cc1)N(Cc1ccc2c(c1)OCO2)C(=O)CNC(C)=O (stereo unspecified) the results were Sfp PPTase inh -6.3%, PINK1 modulator 0.4%, Menin-MLL FL inh 2.2, gsp agonist -3.9%, gsp antagonist 13.5%, ClpP mod 4.8% and D2 ag -0.8.
For NCCNc1ccc([N+](=O)[O-])c(NC2CC2)c1 the results were Sfp PPTase inh 3.0%, PINK1 modulator -2.5%, Menin-MLL FL inh 4.8, gsp agonist 13.5%, gsp antagonist 1.2%, ClpP mod -1.3% and D2 ag -4.0.
`Cc1ccc(C(=O)Nc2cnc3ccccc3c2)cc1` gave Sfp PPTase inh 5.2%, PINK1 modulator 9.1%, Menin-MLL FL inh 1.4, gsp agonist -6.7%, gsp antagonist -4.0%, ClpP mod 76.5% and D2 ag -3.3.
`CCOC(=O)C1(C)CCCN(C(=O)c2ccccc2OC(F)(F)F)C1` (stereo unspecified) gave PINK1 modulator -0.9%, ClpP mod -0.6% and D2 ag -3.3.
O=C(NCc1cccnc1)c1ccc(S(=O)(=O)N2CCCCC2)cc1 was read as Sfp PPTase inh 8.9%, PINK1 modulator inconclusive, Menin-MLL FL inh -0.5, gsp agonist 7.3%, gsp antagonist 1.3%, ClpP mod -0.3% and D2 ag -2.1.
Screening CCCN(CC(=O)Nc1ccccc1OC)C(=O)CCC(=O)c1ccc(OCC)cc1 returned PINK1 modulator 1.1%, gsp agonist 4.1%, gsp antagonist -10.1%, ClpP mod -3.1% and D2 ag -2.7.
Screening COc1ccccc1-c1nc(SC)n[nH]1 returned Sfp PPTase inh -5.1%, PINK1 modulator 2.2%, Menin-MLL FL inh -4.5, gsp agonist -81.5%[inhibitor], gsp antagonist 0.0%, ClpP mod 9.9% and D2 ag 1.4.
Cc1ccccc1-c1cc(C(=O)NCc2cccc(C(F)(F)F)c2)nn1CC1CC(c2cccc([N+](=O)[O-])c2)=NO1 (stereo unspecified) was read as PINK1 modulator 3.9%, gsp agonist -36.4%, gsp antagonist 3.9%, ClpP mod 1.7% and D2 ag 1.1.
For CCOc1ccc(CCNC(=O)COC(=O)Cn2cnc3c2c(=O)n(C)c(=O)n3C)cc1OCC the results were PINK1 modulator 0.9%, gsp agonist 0.4%, gsp antagonist 21.8%, ClpP mod -0.7% and D2 ag 0.7.
Screening CN(C)c1ccc(CN2CCCC(O)C2)cc1 (stereo unspecified) returned Sfp PPTase inh 1.8%, PINK1 modulator 2.1%[38.3 µM], Menin-MLL FL inh -0.9, gsp agonist -26.5%, gsp antagonist -9.5%, ClpP mod -0.6% and D2 ag 0.4.
NC(=O)CN1CCN(Cc2ccc3c(c2)OCO3)CC1 was read as Sfp PPTase inh 13.4%, PINK1 modulator -0.4%, Menin-MLL FL inh 0.0, gsp agonist -4.6%[15.4 µM], gsp antagonist -7.6%, ClpP mod -27.3% and D2 ag 0.1.
For CCOC(=O)N1CC=C2C(C#N)=C(N)C(C#N)(C#N)[C@H](c3cccs3)[C@H]2C1 the results were Sfp PPTase inh -5.7%, PINK1 modulator inconclusive, Menin-MLL FL inh inconclusive, gsp agonist 11.0%, gsp antagonist -17.7%, ClpP mod -1.4% and D2 ag -6.1.
`CC(=O)Nc1cccc(NC(=O)CSc2ccc(-c3ccco3)nn2)c1` gave Sfp PPTase inh 31.6µM*, PINK1 modulator -1.4%, gsp agonist inconclusive, gsp antagonist -15.3%, ClpP mod -7.6% and D2 ag 1.7.
c1ccc(Cc2c[nH]c3ccccc23)cc1 was read as Sfp PPTase inh -0.9%, PINK1 modulator 6.7%, Menin-MLL FL inh 4.2, gsp agonist 1.6%[15.4 µM], gsp antagonist 5.5%, ClpP mod -17.1% and D2 ag 5.9.
OCCNCC(O)Cn1ccc2ccccc21 (stereo unspecified) was read as Sfp PPTase inh 14.4%, PINK1 modulator -2.7%, Menin-MLL FL inh -1.9, gsp agonist 2.6%, gsp antagonist 10.3%, ClpP mod -1.3% and D2 ag -6.7.
For O=C(NC(=S)NCc1ccccc1Cl)c1cccs1 the results were PINK1 modulator 3.2%, gsp agonist -75.5%[inhibitor], gsp antagonist 0.3%, ClpP mod 0.6% and D2 ag 0.1.
Screening CC(C)OC(=O)CC(=O)CSc1nc2c(cc1C#N)CCCCCC2 returned Sfp PPTase inh -0.8%, PINK1 modulator 1.7%, Menin-MLL FL inh 5.6, gsp agonist 24.5%, gsp antagonist inconclusive, ClpP mod 135.4% and D2 ag -0.9.
For Cc1ccc(S(=O)(=O)NNC(=O)c2ccncc2)cc1[N+](=O)[O-] the results were Sfp PPTase inh -4.3%, PINK1 modulator 1.0%, Menin-MLL FL inh 0.5, gsp agonist -4.5%, gsp antagonist 9.0%, ClpP mod -0.6% and D2 ag -2.0.
`Cc1ccc(Nc2ccc(-n3ccnc3)nn2)cc1C` gave Sfp PPTase inh 6.4%, PINK1 modulator 2.5%, Menin-MLL FL inh -0.7, gsp agonist -1.9%, gsp antagonist -4.6%, ClpP mod 3.7% and D2 ag 0.2.
Cc1ccc2c(C)c(C(=O)N(Cc3ccncc3)CC3CCCO3)oc2c1C (stereo unspecified) was read as Sfp PPTase inh -3.8%, PINK1 modulator 2.2%, gsp agonist -0.7%[15.4 µM], gsp antagonist -23.4%, ClpP mod -13.1% and D2 ag -4.0.
